# mut p53 react = mutant p53 pathway reactivation. SW480 PUMA-promoter luciferase. activation, % at 9.98 µM. 28,000 compounds, 1.5% hits; in the data active means activation above about 52%
# Numbers without * were called inactive.
cpd	SMILES	mut p53 react
1	COc1ccc(C2=NOC(C(=O)NCc3ccco3)C2)cc1 (stereo not drawn)	-5
2	COc1ccc(OC)c(C2C(C(=O)c3ccco3)C(=O)C(=O)N2Cc2cccnc2)c1 (stereo not drawn)	-8
3	CCOC(=O)c1ccccc1NC(=O)c1ccc(Cl)c(S(=O)(=O)N2CCOCC2)c1	23
4	O=C(CSc1nc2cc3ccccc3cc2[nH]1)Nc1ccc(F)cc1	25
5	CN(C)c1nc(N(C)C)nc(N(C)C)n1	12
6	C[C@@H]1CN([C@H](C)CO)C(=O)c2cc(NC(=O)c3ccncc3)ccc2O[C@@H]1CN(C)C(=O)Nc1ccc(C(F)(F)F)cc1	-7
7	Cc1nnc2sc(-c3cccc(NC(=O)c4cccnc4)c3)nn12	10
8	COc1cc(C)c(C)cc1S(=O)(=O)n1c(C)nc2ccccc21	3

# Reprinted from the part before: 3 compounds, then new ones.
cpd	SMILES	mut p53 react
6	C[C@@H]1CN([C@H](C)CO)C(=O)c2cc(NC(=O)c3ccncc3)ccc2O[C@@H]1CN(C)C(=O)Nc1ccc(C(F)(F)F)cc1	-7
7	Cc1nnc2sc(-c3cccc(NC(=O)c4cccnc4)c3)nn12	10
8	COc1cc(C)c(C)cc1S(=O)(=O)n1c(C)nc2ccccc21	3
9	C[C@@H]1CN([C@H](C)CO)C(=O)c2cc(NC(=O)Cn3cnnn3)ccc2O[C@@H]1CN(C)Cc1ccc(Cl)c(Cl)c1	-6
10	COc1ccc(S(=O)(=O)N(C)CC(=O)Nc2ccc(C(F)(F)F)cc2)cc1Cl	6
11	Nc1ncnc2c1cnn2-c1ccccc1	30
12	CCOC(=O)c1ccc(OC(=O)CCCCCN=C(N)N)cc1	4
13	OC(COc1ccc2ccccc2c1Br)Cn1ccnc1 (stereo not drawn)	-3
14	COc1ccc(-c2noc(CN(C(=O)c3c(-c4ccccc4Cl)noc3C)C(C)C)n2)cc1	-1
15	O=C(/C=C/c1ccccc1)c1ccccc1O	7
16	Cc1cc(C)nc(SCC(=O)Nc2ccnc3ccccc23)n1	-33

# Pulled by structure from above:
cpd	SMILES	mut p53 react
10	COc1ccc(S(=O)(=O)N(C)CC(=O)Nc2ccc(C(F)(F)F)cc2)cc1Cl	6
16	Cc1cc(C)nc(SCC(=O)Nc2ccnc3ccccc23)n1	-33
11	Nc1ncnc2c1cnn2-c1ccccc1	30
15	O=C(/C=C/c1ccccc1)c1ccccc1O	7
12	CCOC(=O)c1ccc(OC(=O)CCCCCN=C(N)N)cc1	4
14	COc1ccc(-c2noc(CN(C(=O)c3c(-c4ccccc4Cl)noc3C)C(C)C)n2)cc1	-1

# Following part
cpd	SMILES	mut p53 react
17	COc1cc2c(cc1OC)C1Cc3ccc(OC)c(OC)c3CN1CC2 (stereo not drawn)	15
18	Cc1cc2c(=O)n(Cc3ccco3)c(SCC(=O)c3ccc(Cl)s3)nc2s1	-8
19	CCn1c(SCc2nc3ccccc3c(=O)[nH]2)nc2ccccc2c1=O	-56
20	COCCNC(=O)c1ccccc1NC(=O)Nc1ccccc1	6
21	O=C1CC(C(=O)NCc2ccccc2)N=C(N2CCCCC2)N1 (stereo not drawn)	-9
22	Cc1cccc(C)c1OCC(C)N (stereo not drawn)	5
23	Cc1c(Br)c([N+](=O)[O-])nn1C(C)C(=O)Nc1c(C)n(C)n(-c2ccccc2)c1=O (stereo not drawn)	8
24	COc1ccc(S(=O)(=O)N(C)c2ccc(C(=O)Nc3cccnc3)cc2)cc1	2

# The last 2 compounds of the part above lead into the next.
cpd	SMILES	mut p53 react
23	Cc1c(Br)c([N+](=O)[O-])nn1C(C)C(=O)Nc1c(C)n(C)n(-c2ccccc2)c1=O (stereo not drawn)	8
24	COc1ccc(S(=O)(=O)N(C)c2ccc(C(=O)Nc3cccnc3)cc2)cc1	2
25	CCc1ccc(CCC(=O)Nc2sc3c(c2C#N)CCCC3)o1	-56
26	O=C(CSc1nnc(-c2ccncc2)n1-c1ccccc1)NC1CCCCC1	-10
27	C[C@H]1CN([C@@H](C)CO)C(=O)c2cc(NC(=O)Cn3cnnn3)ccc2O[C@@H]1CN(C)Cc1ccc(Cl)c(Cl)c1	5
28	C[C@@H]1CN([C@@H](C)CO)C(=O)c2cc(NC(=O)Cn3cnnn3)ccc2O[C@@H]1CN(C)Cc1ccc(Cl)c(Cl)c1	1
29	O=C(CC1NC2CCCCC2NC1=O)Nc1cccc(C(F)(F)F)c1 (stereo not drawn)	1
30	O=C(NCc1ccco1)C1c2ccccc2Oc2ccccc21	1

# Screens from PubChem BioAssay.

# An excerpt, and most or all hits are left out here.
